Source: PubChem (Johns Hopkins Ion Channel Center)
KCNQ2 block = KCNQ2 potassium channel inhibitors, primary screen, cell-based, CHO-K1, FluxOR thallium flux, B-score (AID 2156) | Potassium voltage-gated channel subfamily KQT member 2 (Rattus norvegicus), O88943 | 20 min; active compounds read low; only compounds with negative scores are shown here; some inactives read as strong as hits | B-score at 10 µM | 310,000 compounds, 1.1% hits;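 active means fluorescence ratio B-score at most minus 3 library SDs, with starting brightness B-score within 2 library SDs, cut at about -5.5 in these data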
Target sequence (O88943 whole entry, looked up): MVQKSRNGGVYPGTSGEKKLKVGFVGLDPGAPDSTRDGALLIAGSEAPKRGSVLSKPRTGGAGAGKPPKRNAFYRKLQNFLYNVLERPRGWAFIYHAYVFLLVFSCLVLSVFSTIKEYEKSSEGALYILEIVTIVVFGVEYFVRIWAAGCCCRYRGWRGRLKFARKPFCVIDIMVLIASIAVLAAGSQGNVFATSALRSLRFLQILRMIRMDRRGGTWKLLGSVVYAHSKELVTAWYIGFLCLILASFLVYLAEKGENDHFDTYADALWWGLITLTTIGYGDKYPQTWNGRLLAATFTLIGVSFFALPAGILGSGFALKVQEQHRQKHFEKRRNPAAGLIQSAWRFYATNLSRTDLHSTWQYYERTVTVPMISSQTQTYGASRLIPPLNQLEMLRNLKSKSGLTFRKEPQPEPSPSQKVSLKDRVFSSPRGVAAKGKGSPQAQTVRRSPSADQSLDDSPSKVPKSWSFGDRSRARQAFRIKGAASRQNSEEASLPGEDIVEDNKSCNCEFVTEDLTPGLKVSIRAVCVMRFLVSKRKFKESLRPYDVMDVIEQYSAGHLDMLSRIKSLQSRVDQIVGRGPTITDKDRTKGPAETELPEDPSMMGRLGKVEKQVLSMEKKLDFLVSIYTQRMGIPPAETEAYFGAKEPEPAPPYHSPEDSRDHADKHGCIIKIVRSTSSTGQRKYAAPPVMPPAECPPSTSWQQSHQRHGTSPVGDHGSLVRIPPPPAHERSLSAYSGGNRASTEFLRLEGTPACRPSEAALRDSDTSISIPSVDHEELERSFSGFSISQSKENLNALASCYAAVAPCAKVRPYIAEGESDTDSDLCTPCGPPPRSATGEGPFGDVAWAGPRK
KCNQ2 block baseline = also measured in KCNQ2 block; calls as there; B-score; measured here: initial fluorescence intensity artifact check;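 brightness before thallium and not channel activity; 0 = typical well and far values either way flag optical interference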
An asterisk follows results filed as active; i = inactive. Some of the compounds tested (hit frequency here may not be typical).

A first look (seven entries):
SMILES | KCNQ2 block | KCNQ2 block baseline
O=C(O)C1CCCN(S(=O)(=O)c2ccc(Br)cc2)C1 (configuration not stated) | i | -1
O=c1c2oc3ccccc3c2ncn1Cc1cccc(Cl)c1 | i | -0.15
COc1ccc(CC(=O)OCC(=O)N2CCCc3ccccc32)cc1 | i | 0.69
CC1CCCCC1Nc1nc2ccc(Cl)cc2n2cnnc12 (configuration not stated) | i | -0.33
CSc1cccc(CNC(=O)C2CCC(=O)N(CC3CCCCC3)C2)c1 (configuration not stated) | i | 0.21
COc1cccc(N2CCN(C3CCCC(C)C3)CC2)c1 (configuration not stated) | i | -1.1
COc1ccc(CC2(CO)CCN(Cc3cnn(C)c3C)CC2)cc1 | i | 0.13

All compounds of this part, previewed entries included:
SMILES | KCNQ2 block | KCNQ2 block baseline
O=C(O)C1CCCN(S(=O)(=O)c2ccc(Br)cc2)C1 (configuration not stated) | i | -1
O=c1c2oc3ccccc3c2ncn1Cc1cccc(Cl)c1 | i | -0.15
COc1ccc(CC(=O)OCC(=O)N2CCCc3ccccc32)cc1 | i | 0.69
CC1CCCCC1Nc1nc2ccc(Cl)cc2n2cnnc12 (configuration not stated) | i | -0.33
CSc1cccc(CNC(=O)C2CCC(=O)N(CC3CCCCC3)C2)c1 (configuration not stated) | i | 0.21
COc1cccc(N2CCN(C3CCCC(C)C3)CC2)c1 (configuration not stated) | i | -1.1
COc1ccc(CC2(CO)CCN(Cc3cnn(C)c3C)CC2)cc1 | i | 0.13
O=C(O)Cn1nc(-c2ccccc2)cc1-c1ccccc1 | i | 2.8
CCOC(=O)N1CCN(Cc2nc3cc(NC(=O)CC(C)C)ccc3n2CC)CC1 | i | -1.1
CCCNC(=O)c1ccccc1N1CCN(CCCCN2C(=O)C3CCCCN3C2=O)CC1 (configuration not stated) | i | -0.52
O=C(Cc1ccc(Cl)cc1)c1c[nH]c(C(=O)NCCCN2CCOCC2)c1 | i | 0.89
CC(C)c1ccc(CN(C)CC(O)c2ccccc2)cc1 (configuration not stated) | i | -0.46
OC[C@H]1O[C@@H](O[C@@H]2[C@@H](CO)O[C@@](O)(CO)[C@H]2O)[C@H](O)[C@@H](O)[C@H]1O | i | -0.01
COc1ccc(S(=O)(=O)NCCCn2ccnc2)cc1Cl | i | 0.64
O=C(Nn1c(-c2ccc(F)cc2)nc2ccccc2c1=O)c1cccnc1 | i | 0.68
CCS(=O)(=O)Nc1cc2c3c(c1)CCC(=O)N3CCC2 | i | -2.2
COc1ccccc1N(Cc1ccccc1)S(=O)(=O)c1cccc(C(=O)Nc2ccccn2)c1 | i | 2.5
CC1CCN(C(=O)c2cccc(S(=O)(=O)N3CCN(c4ccccc4)CC3)c2)CC1 | i | 2
O=C(OCc1cnc(Cl)s1)c1ccccc1Cl | i | -1.4
Cc1ccc(NC(=O)CN2CCOCC2)cc1Cl | i | 0.35
CC(C)(CC(=O)O)CC(=O)Nc1ccc(Cl)c(Cl)c1 | i | -0.52
COc1ccccc1NC(=O)N1CCCC1C(=O)NCc1ccccc1 (configuration not stated) | i | -0.52
COC(=O)c1ccc(NC(=O)c2ccccc2)o1 | i | 0.14
O=C(/C=C/c1c(F)cccc1Cl)N1CCc2ccccc2C1 | i | 0.49
Cc1cc(N)n(-c2ncnc3scc(-c4ccccc4)c23)n1 | i | 1.1
N#C/C(=C\c1cccc(OCC(=O)O)c1)c1nc2ccccc2[nH]1 | i | -0.15
COc1ccc(CC(=O)NNc2ncnc3c2cnn3C)cc1 | i | -0.37
CCN(CC)CC(=O)Nc1sc(C)cc1C(=O)c1ccc(C)cc1 | -6.7* | 0.01*
Brc1cccc(CSc2nnc(-c3ccncc3)o2)c1 | i | -0.36
O=C(Cc1ccccc1)Nc1ccc(N2CCN(Cc3ccccc3F)CC2)cc1 | i | -0.13

4 entries from above, set out differently:
SMILES	KCNQ2 block	KCNQ2 block baseline
O=C(/C=C/c1c(F)cccc1Cl)N1CCc2ccccc2C1	i	0.49
Cc1cc(N)n(-c2ncnc3scc(-c4ccccc4)c23)n1	i	1.1
N#C/C(=C\c1cccc(OCC(=O)O)c1)c1nc2ccccc2[nH]1	i	-0.15
COc1ccc(CC(=O)NNc2ncnc3c2cnn3C)cc1	i	-0.37

Continued:
SMILES | KCNQ2 block | KCNQ2 block baseline
CNC(=O)c1ccc(CNC(=O)OCC(F)(F)F)cc1 | i | 0.53
S=c1[nH]nc(CCc2ccccc2)n1-c1ccccc1 | i | 1.1
O=C1C2C3C=CC(C4CC34)C2C(=O)N1CCc1ccccc1 (configuration not stated) | i | 2.2
CCN(CC)S(=O)(=O)c1ccc(N=Cc2c(C)c(C#N)c(=O)n(C)c2O)cc1 | i | 1
CCOc1ccc(N(CC(=O)O)S(=O)(=O)c2ccc(OC)c(OC)c2)cc1 | i | 1.5
COc1ccc(C(=O)n2nnc3ccccc32)cc1Br | i | -1.3
CCCN(CCC)CC(O)CN(c1ccccc1)S(=O)(=O)c1ccc(C)cc1 (configuration not stated) | i | -0.04
COCCCNC(=O)c1cc2cc3cc(OC)ccc3nc2o1 | i | 2.6
O=S(=O)(c1ccccc1)N1CCC(Oc2ccc(-n3cnnn3)cc2)CC1 | i | 0.8
Cn1c(=O)c2c(nc(Cl)n2CC(=O)N2CCCCC2)n(C)c1=O | i | 0.58
O=C(CCN1C(=O)C2C3C=CC(C3)C2C1=O)NCCc1ccccc1Cl (configuration not stated) | i | 3
CCc1nc2sc3c(O)cc(=O)[nH]c3c2cc1C | i | -0.35
O=C(O)CCN1C(=O)C2CCCCC2C1=O (configuration not stated) | i | -2.5
COc1cc(C2CC(=O)c3c(O)cc(O)cc3O2)ccc1O (configuration not stated) | i | -1.9
CCN1/C(=C\C=C2\C(=O)N(C)C(=S)N2C)Sc2ccccc21 | i | 1.8
CCc1cc(=S)n2c([nH]c3ccccc32)c1C#N | i | 0.54
COc1ccsc1NC(=O)OCc1ccc(Cl)cc1 | i | 0.49
COC(=O)CSc1nc2sc3c(c2c(=O)n1-c1ccc(OC)cc1)CCN(C)C3 | i | -0.13
Cc1cccc(CCNC(=O)c2cc(=O)[nH]c3ccc(Br)cc23)c1 | i | 0.03
O=C(Nc1ccc(N2CCOCC2)cc1N1CCOCC1)c1cccs1 | i | -0.96
O=C(NCc1ccccc1C(F)(F)F)C1CC(c2cc(C(F)(F)F)cc(C(F)(F)F)c2)=NO1 (configuration not stated) | i | -0.2
Nc1nc(SCC(=O)NCC2CCCO2)n[nH]1 (configuration not stated) | i | 0.82
Cc1cccc(NC(=O)CSc2nc3[nH]ncc3c(=O)n2-c2ccccc2)c1 | i | 1.7
COc1ccc(-c2nc3cccc(C)n3c2NCC2CCCO2)cc1O (configuration not stated) | i | -0.59
CCCN(CC(=O)Nc1ccccc1Br)CC(=O)Nc1ccc(F)c(F)c1F | i | 0.33
CCCC(=O)N(CCN1CCOCC1)c1nc2ccc(OCC)cc2s1 | i | -0.26
CCOC(=O)c1nn(-c2ccccc2)c(=O)cc1OCC(=O)Nc1ccccc1OCC | i | 1.6
O=C(NCc1ccccn1)C(=O)N/N=C/c1ccccc1O | i | -0.02
CC(=O)NC1=NN(C(C)=O)C(C)(CC(=O)OC(C)(C)C)S1 (configuration not stated) | i | 0.6
COC(=O)c1ccc(N2CCN(CCNC(=O)Nc3ccc(OC)cc3)CC2)cc1 | i | -1.2
Cc1ccc2c(CC(=O)NC3=NCCS3)coc2c1 | i | -1.1
COCCOC(=O)c1c(NC(=O)CNCc2ccco2)sc(C(N)=O)c1C | i | 1.6
CC(=O)c1cn(CC(=O)NCc2cccnc2)c2ccccc12 | i | 2.5
COc1ccc(/C=C(\CC(=O)O)c2nc3ccccc3s2)cc1O | i | 0.12
COc1c(Cl)cc(-c2noc(C)c2C(=O)NC(C)C)cc1Cl | i | -0.41
CN(C)S(=O)(=O)c1ccc(NC(=O)c2cc3ccccc3o2)cc1 | i | -1.4
O=C1CCC2=C(CCCC2=O)N1 | i | 0.54
COc1ccc(N(CC(=O)Nc2cccc(N(C)S(C)(=O)=O)c2)S(=O)(=O)c2ccc(C)cc2)cc1 | i | 0.04
CCc1ccccc1NC(=O)NC1CC2CCC(C1)N2Cc1cccs1 (configuration not stated) | i | 0.31
COCCn1c(-c2ccc(OC)cc2)cnc1N | i | -0.09
CCOC(=O)c1[nH]c(C)c(C(=O)OCc2ccc(C)cc2)c1C | i | 0.25
COc1ccccc1-c1cc(-c2ccccc2)nc(SCC(=O)O)c1C#N | i | 0.42
CC1(C)C(O)=C(c2nc3ccccc3[nH]2)C(=N)N1c1ccccc1 | i | -0.52
CCOc1ccc(NC(=O)CSc2ncn[nH]2)cc1 | i | 1.8
CC(C)=CC1C(C(=O)NCCOc2ccccc2)C1(C)C (configuration not stated) | i | -0.71
Cc1cc(NC(=O)CSc2nc3ccccc3[nH]2)n(-c2ccccc2)n1 | i | -0.08
CC(=O)NCCc1nc2ccccc2n1Cc1ccc(Cl)cc1 | i | -0.26
Cc1ccc(CNC(=O)/C(C#N)=C/c2ccc(C)s2)cc1 | i | -0.25
COc1ccc(NC(=O)CSc2nnnn2C)c([N+](=O)[O-])c1 | i | 1.5
COc1cccc(NS(=O)(=O)c2c(C)cc(C)cc2C)c1 | i | -0.76
COc1ccc2c(c1)CCc1c-2nc2ccccc2c1N1CCOCC1 | i | 1.5
Cc1ccccc1NC(=S)NNC(=O)c1cccc(Br)c1 | i | 0.97
CC1CCN(c2c([N+](=O)[O-])nn(-c3ccc4c(c3)OCCO4)[n+]2[O-])CC1 | -5.6* | 0.86*
COC(=O)c1ccccc1S(=O)(=O)N1CCCC(c2nc3c(nnn3Cc3ccc(C)cc3)c(=O)[nH]2)C1 (configuration not stated) | i | 2.2
O=S(=O)(c1ccc(Cl)cc1)N1CCn2c1nc1ccccc12 | i | 0.73
O=C(NCc1n[nH]c(=S)n1-c1ccc(Cl)c(Cl)c1)c1ccc(S(=O)(=O)N2CCCCC2)cc1 | i | -1.7
Cc1nc(N2CCN(S(=O)(=O)c3ccc(Br)cc3)CC2)c2c(C)c(C)sc2n1 | i | -0.83
Cn1cccc1/C=N/NC(=O)CSc1nc2ccccc2n1C | i | -2.1
CCOC(CNC(=O)c1ccc2c(c1)ncn2-c1ccc(F)c(F)c1)OCC | i | -1.7
Cc1ccc2c(c1)C(c1ccc(N3CCOCC3)cc1)=NNC(c1cccs1)=N2 | i | 0.65
Additional structures
SMILES | KCNQ2 block | KCNQ2 block baseline
COc1ccc(NC(=O)N2CCN(c3ccc([N+](=O)[O-])cc3)CC2)cc1 | i | 1.2
O=C(c1ccccn1)N1N=C2/C(=C/c3ccccc3)CCCC2C1c1ccccc1 (configuration not stated) | i | -0.66
CC1CC(C)CN(C(=S)Nc2ccc(SC(F)F)cc2)C1 (configuration not stated) | i | 0.77
CC(=O)c1c(C)[nH]c(C(=O)NCc2ccccn2)c1C | i | -1
COc1ccc2cc(CN(CCCN3CCOCC3)Cc3nnnn3C3CCCC3)c(=O)[nH]c2c1 | i | 2.3
O=C(c1ccc(F)cc1)N1CCCC(N2CCN(Cc3ccc4c(c3)OCO4)CC2)C1 (configuration not stated) | i | 0.25
Cc1ccc(CNC(=O)c2coc(=O)c3ccccc23)o1 | i | 1.4
Cc1[nH]c2ccccc2c1CN1CCN(c2ccccn2)CC1 | i | -0.88
Cc1ccc(N(Cc2cc3ccc(C)cc3[nH]c2=O)C(=O)c2ccco2)cc1 | i | 0.61
COc1ccc(CN2C(=O)c3ccccc3C(/C=N\OCc3ccc(C)cc3)C2=O)cc1 (configuration not stated) | i | 0.72
CCC(=O)NC(=S)Nc1ccc(NC(=S)NC(=O)c2ccc(C)cc2)cc1 | i | -0.3
CCOC(=O)CNC(=O)CSc1nc2nc(C)c(Br)cc2[nH]1 | i | 0.8
c1cc2c(cc1-c1[nH]ncc1CN1C[C@H]3CC[C@H]1C3)OCO2 | i | 1.3
Cc1cccc(NC(=O)[C@H](C)NC(=O)[C@@H]2Cc3ccccc3CN2C(=O)OC(C)(C)C)c1 | i | 0.17
O=C(NCC(=O)N1CC=C(c2ccccc2)CC1)c1ccco1 | i | -0.25
COc1ccc(Nc2nc(C)cc(C)c2C#N)c(OC)c1 | i | 0.72
O=C(CN(Cc1ccccc1)C(=O)CCC(=O)Nc1nccs1)NCc1ccccc1 | i | 0.54
OC(CNCc1ccc(-c2ccccc2)cc1)c1ccccc1 (configuration not stated) | i | -0.48
COc1ccc(C(=O)c2c(C)c3cc(C)ccc3n2CC(O)CN2CCOCC2)cc1 (configuration not stated) | i | -1.5
Cc1c(C(=O)N(Cc2ccccc2)Cc2cccs2)cnn1-c1ccc(Cl)cc1 | i | -0.57
CCC(C)NC(=O)CS(=O)Cc1nc(-c2ccccc2C)oc1C (configuration not stated) | i | -0.7
COCCCNc1nc2c(c(=O)[nH]c(=O)n2C)n1CCCc1ccccc1 | i | 1.3
COc1ccc(N2C(=O)C(F)(F)C2c2cccc(F)c2)cc1 (configuration not stated) | i | 0.6
CN(CCC1CCCCO1)C(=O)CCc1nnc(CCc2ccccc2)o1 (configuration not stated) | i | 0.11
O=C(CSC1c2ccccc2C(=O)N1c1ccccc1)N1CCOCC1 (configuration not stated) | i | 0.05
Cc1ccccc1NC(=O)c1ccc2nccnc2c1 | i | 0.01
O=C(COc1ccccc1O)c1cccs1 | i | 4.4
CCCCN(C)C(=O)CCC(=O)Nc1ccc2nc(N3CCOCC3)cc(C)c2c1 | i | 0.08
COc1ccc(CCC(=O)N2CCN(c3ccc(OC)cc3)CC2)cc1 | i | -1.8
